# Bioassay records (PubChem)
# HNF4A DNA FP – change in binding of human HNF4 alpha to DNA; HNF4a-FITC DNA binding, fluorescence polarization, 1 h; activity change, % at 10 µM; actives 0.3% (n = 360,000); AID 1224865; in the data active means activity change above about 30%, passing the limit was not always enough;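 further: controls were the assay level and a saturating level of protein; the project sought stronger binding though the title names inhibitors; some compounds called inactive have numbers as strong as hits; positive values seem to mean higher polarization but the record does not say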
# Calb FLC – C. albicans growth modulation with fluconazole | C. albicans CaCi-2 (fluconazole-resistant clinical isolate) + fluconazole, Alamar Blue growth, 48 h | growth inhibition, % (test concentration not listed) | actives 0.57% (n = 300,000) | AID 1979;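 active means most replicates above 75%; inconclusive means exactly half above 75%; inactive means most below 75%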;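 further: all wells also contain fluconazole at 8 µg/ml as a sub-toxic cotreatment; 0% = median of DMSO wells and 100% = median of geldanamycin control wells; wells of about 8 µL received 7.5 nL stock; the first replicate is given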
# ALR inh – blocks human ALR sulfhydryl oxidase activity; P55789; purified ALR, DTT oxidation, H2O2 HRP-luminol luminescence; inhibition, % (no concentration beside the values); actives 3.8% (n = 290,000); AID 485317;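 active means mean and each replicate at 75% or more; inconclusive means only one of the two met; inactive means neither met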;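 further: stock transfer was 7.5 nL into about 7.5 µL; 0% = neutral wells and 100% = wells with inactivated enzyme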
# Target sequence (P55789 whole entry, looked up): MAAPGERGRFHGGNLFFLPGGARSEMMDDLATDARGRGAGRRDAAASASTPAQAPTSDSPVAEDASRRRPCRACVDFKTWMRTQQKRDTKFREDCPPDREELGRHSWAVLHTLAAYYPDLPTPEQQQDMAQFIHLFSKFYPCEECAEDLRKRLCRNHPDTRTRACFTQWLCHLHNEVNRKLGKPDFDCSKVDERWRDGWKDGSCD
# LANA-H2B inh – blocks KSHV LANA binding to histone H2A/H2B; Q9QR71; cell-free LANA-H2A/H2B peptide, fluorescence polarization; inhibition, % (test concentration not listed); actives 0.6% (n = 320,000); in the data active means inhibition mostly above about 10%, no sharp cut-off; inactive means mostly below about 6.7%;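 further: stock transfer was 7.5 nL into about 10 µL; 0% = median of vehicle wells and 100% = median of positive control wells; one replicate is shown; the record names a cut of 25% in any replicate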
# RanGTP-Impb inh – inhibitors of RanGTP-importin-beta interaction, primary screen, biochemical, FRET, CFP-Ran, YFP-importin-beta, homogeneous | inhibition, % (concentration not given with the values) | cell-free CFP-Ran/YFP-importin-beta FRET ratio | actives 1.1% (n = 300,000);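 active means most replicates above 15%; inconclusive means exactly half above 15%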;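 further: 0% = DMSO wells and 100% = Ran loaded with GDP instead of GTP; wells of about 40 µL received 100 nL stock; the first replicate is given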
# Vif TR-FRET – inhibitors of Vif binding to APOBEC3G peptide, primary screen, biochemical, TR-FRET, GST-Vif 1-94, biotin-A3G peptide, dose response retest (AID 1117319); TR-FRET GST-Vif / biotin-A3G peptide binding; higher % means a stronger effect; test concentration not given here; strong numbers were not always called active; inhibition, %, or IC50 in µM where a hit was titrated; actives 0.57% (n = 260,000);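 active means above the screen mean plus three standard deviations and confirmed in dose response; inconclusive means results disagree or hit not tested in dose response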;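 further: Vif residues 1-94 fused to GST binding biotinylated APOBEC3G peptide 110-148; 0% = full assay without inhibitor and 100% = GST in place of GST-Vif; retest series ran down from 100 µM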
# B2AR ag – agonists of human beta-2 adrenergic receptor inducing internalization. P07550. Am2.2-beta2AR cells, FAP receptor internalization, flow cytometry; reference of the scale not given here. response, % (no concentration beside the values). actives 0.43% (n = 340,000). AID 504454;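 active means response above a set limit, near 3 SD of response in nonfluorescent compounds, cut at about 42% in these data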;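 further: stock transfer was 100 nL into about 11 µL; a reference agonist was the positive control; negative values mostly stem from fluorescent compounds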
# Target sequence (P07550 whole entry, looked up): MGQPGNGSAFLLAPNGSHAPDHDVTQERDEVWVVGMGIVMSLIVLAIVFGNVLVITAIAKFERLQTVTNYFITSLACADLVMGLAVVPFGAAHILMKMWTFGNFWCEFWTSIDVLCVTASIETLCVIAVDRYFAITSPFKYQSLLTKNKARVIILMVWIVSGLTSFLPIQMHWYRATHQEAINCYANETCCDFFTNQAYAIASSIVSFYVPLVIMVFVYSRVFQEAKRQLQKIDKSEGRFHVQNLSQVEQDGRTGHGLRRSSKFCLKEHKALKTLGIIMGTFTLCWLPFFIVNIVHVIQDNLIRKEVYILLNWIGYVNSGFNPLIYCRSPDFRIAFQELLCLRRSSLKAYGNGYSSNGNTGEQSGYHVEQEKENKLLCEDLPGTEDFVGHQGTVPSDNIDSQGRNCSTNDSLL
# Active calls of the source: *; ? = inconclusive; / = not tested or not shown.
# Values run as follows: LANA-H2B inh | B2AR ag | Vif TR-FRET | RanGTP-Impb inh | Calb FLC | ALR inh | HNF4A DNA FP
O=S(=O)(Nc1cccc(-c2ccc3nncn3n2)c1)c1ccc(Cl)s1
 : 7.3 | -4 | 6% | 1.6 | 9 | -6 | -3.0
CC(OC(=O)CNC(=O)c1ccc(Br)cc1)C(=O)NC1CCCCC1C (centres undefined)
 : -4.1 | 8 | -6% | / | / | / | 1.6
O=C(O)c1ccc(N/N=C/c2cc3c(cc2[N+](=O)[O-])OCO3)cc1
 : 1.3 | 8 | 19% | 1.9 | 6 | / | 3.6
Cc1ccc(S(=O)(=O)N(C)Cc2nc(-c3ccc(Br)cc3)no2)cc1
 : 4.0 | -1 | -15% | 3.9 | 6 | -3 | 1.2
CC(C)c1ccccc1OCC(=O)Nc1ccc2[nH]ncc2c1
 : 2.4 | 19 | 12% | -1.6 | -6 | -35 | -1.8
COc1cc(C2N(c3ccc(Cl)c(Cl)c3)C(=O)C3CCCN32)cc(OC)c1OC (centres undefined)
 : -0.6 | -1 | 14% | -1.7 | -15 | / | 0.4
COc1cc(NC(=O)CCc2nnc3ccc(NCc4ccco4)nn23)cc(OC)c1
 : 5.4 | 7 | / | 5.1 | -6 | -9 | 2.7
CCC1(CC)CNC(=O)NC1=O
 : / | 1 | 3% | / | / | / | 4.9
CS(=O)(=O)c1ccc(Cl)c(S(=O)(=O)NCc2ccccc2)c1
 : 1.8 | 3 | 8% | -6.0 | 7 | -1 | -0.6
CC(C)Oc1ccc(CNC(=O)CCCN2C(=O)C(c3ccccc3)Oc3cccnc32)cc1 (centres undefined)
 : 3.8 | -6 | 0% | 6.0 | -3 | -1 | 5.9
CCc1ccccc1OCC(=O)N1CCN(c2ncccn2)CC1
 : / | -1 | 5% | / | / | / | -0.9
S=C(c1ccccc1)N1CCCC1
 : -1.1 | -1 | / | -2.8 | 1 | -11 | -1.6
Cc1nc2ccccc2n1CC(=O)OCC(=O)Nc1ccc2c(c1)OCCO2
 : -6.1 | -1 | -1% | -1.7 | -2 | 6 | 1.4
O=C(CSc1nnc(CCCN2C(=O)c3cccc4cccc(c34)C2=O)n1-c1ccccc1)NCCCN1CCOCC1
 : / | -3 | ? | -4.5 | 13 | / | 3.7
Cc1nn2c(=O)cc(CSc3nc4ccccc4[nH]3)nc2s1
 : 4.2 | -9 | ? | 4.2 | 4 | -2 | -3.1
CN(C)c1oc(-c2ccc(Cl)cc2)nc1S(=O)(=O)c1ccccc1
 : 2.5 | 2 | 30% | 3.1 | 2 | 1 | 1.2
COCCSc1nnc(NC(=O)c2ccc([N+](=O)[O-])cc2)s1
 : -5.7 | 1 | -1% | 0.1 | 43 | -1 | -0.4
Cc1c(C)c(C)c(CN2CCSCC2)c(C)c1C
 : 2.6 | -2 | 21% | 0.7 | -3 | 2 | 6.5
COc1ccc(NC(=O)c2nn(C)c(=O)c3ccccc23)cc1S(=O)(=O)Nc1ccccc1Cl
 : 13 | 21 | -2% | -0.6 | 2 | -8 | 1.0
CC(C)(C)n1cnc2cc(NCc3ccccc3O)ccc21
 : 2.4 | 6 | 4% | ? | -1 | 99* | -1.3
COc1cccc2c(=O)c(C(=O)NCCc3ccccc3)c[nH]c12
 : / | 11 | -4% | / | / | / | 3.8
CCCCC(=O)N/N=C(/C)C1=C(C)C(C)(C)OC1=O
 : 1.0 | 2 | 9% | 1.4 | -18 | 0 | -1.2
COC(=O)c1cc(S(=O)(=O)n2nc(C)cc2C)c(Cl)cc1Cl
 : -12 | / | / | -4.4 | -3 | 2 | /
CCOc1cc(C(=O)Nc2ccc(S(=O)(=O)NC3=NCCCCC3)cc2)cc(OCC)c1OCC
 : -1.3 | 4 | -6% | ? | 2 | 0 | 9.2
COc1ccc(C(CNC(=O)CSc2ccccc2F)N2CCOCC2)cc1 (centres undefined)
 : 1.2 | 6 | 11% | 0.0 | 1 | -5 | 1.8
CCOCCCNCC(=O)Nc1ccc(OC(F)(F)F)cc1
 : 1.1 | 6 | -4% | 2.1 | 1 | -6 | 1.2
CCCCNC(=O)N1c2ccccc2CC1C (centres undefined)
 : 1.2 | 3 | 2% | -1.8 | -4 | 2 | -0.1
Cc1ccc(C(=O)NC2=NCCS2)cc1
 : -4.2 | / | 29% | 3.0 | -3 | 5 | /
O=C(Cn1c(NCCCO)nc2ccccc21)c1ccc([N+](=O)[O-])cc1
 : -2.9 | 0 | -2% | -0.8 | -1 | 5 | 0.7
Cc1ccc(C(=O)Nc2ccc([N+](=O)[O-])cn2)o1
 : 4.4 | 1 | -10% | -1.5 | 3 | 0 | -12
Cc1ccc(CNC(=O)CC(C)S(=O)(=O)c2ccc3c(c2)NC(=O)CO3)cc1 (centres undefined)
 : -0.2 | 1 | / | -1.6 | -7 | -2 | -7.2
O=C(NC(=S)Nc1nc2ccccc2s1)c1cccs1
 : -0.4 | -4 | -11% | 1.0 | 32 | 2 | -2.1
COCCN1C(=O)N[C@@H](CCc2ccccc2)[C@@H](C(=O)OC)[C@H]1C
 : 0.1 | -1 | / | -1.7 | -7 | -22 | -4.9
CCc1nc(SCC(=O)NNC(=O)C(C)C)c2ccccc2n1
 : -5.3 | 1 | 17% | ? | -1 | 5 | -0.1
C=CCc1c(C)[nH]c2c(OC)cccc2c1=S
 : -6.4 | 2 | / | 6.3 | -2 | -6 | -1.5
CCOC(=O)C1(Cc2cccc(OC)c2)CCCN(C(=O)c2cc(C)oc2C)C1 (centres undefined)
 : -0.8 | 4 | -4% | 1.0 | 4 | -18 | 4.1
Cc1cccc2sc(N(CCCN(C)C)C(=O)CN3C(=O)c4ccccc4C3=O)nc12
 : -8.2 | 16 | ? | 3.5 | -3 | -5 | 7.9
Cc1cc(C)cc(NC(=O)c2cccc(NC3=NC4CS(=O)(=O)CC4S3)c2)c1 (centres undefined)
 : -5.4 | -7 | / | 0.1 | -1 | -15 | 2.9
CCn1cc(C(=O)N[C@@H](CCSC)C(=O)NCCCO)c(=O)c2cc3c(cc21)OCO3
 : -4.1 | -1 | -1% | -1.4 | 0 | / | 5.3
O=C(NC1CCCCC1)C(c1cccs1)N(C(=O)c1ccccn1)c1ccccc1 (centres undefined)
 : 1.6 | -2 | -1% | 3.3 | -9 | -18 | -2.4
COc1cccc(N2CCN(S(=O)(=O)c3c(C)[nH]c(C)c3C(=O)N3CCCCC3)CC2)c1
 : 3.2 | 15 | / | ? | -7 | 41 | -3.5
COc1cc(C2Nc3c(F)cccc3C3C=CCC32)cc(Br)c1OC (centres undefined)
 : 1.2 | 11 | / | -1.1 | 1 | -5 | 3.6
CN(Cc1cccc(Cl)c1Cl)C(=O)c1cccc(S(=O)(=O)N2CCN(Cc3ccccc3)CC2)c1
 : -2.8 | 7 | / | 2.2 | 1 | 0 | -3.8
O=C(Nc1ccccc1)OCc1ccccn1
 : -3.1 | -3 | -3% | -2.4 | -4 | -23 | -1.0
Oc1ccc(CN2CCc3ccccc3C2)c2cccnc12
 : 4.9 | 7 | ? | ? | 5 | -6 | -3.1
Cc1csc(SCc2nnc(-c3ccccc3Br)o2)n1
 : -5.2 | -5 | 2% | -0.2 | -4 | -112 | 2.2
COC(=O)c1ccc(N2CCN(C)CC2)c(NC(=O)COc2ccccc2)c1
 : -0.6 | -3 | / | 3.6 | 0 | 9 | -5.3
Cc1ccccc1C(=O)Nc1cccc(NC(=O)Cn2cnc3c(=O)n(C)c(=O)n(C)c32)c1
 : -4.1 | 3 | 20% | -2.0 | 2 | -1 | 2.1
COc1ccc(OCC(=O)N/N=C2/C=C(C)CC2)cc1
 : 2.8 | -2 | 0% | 1.0 | -2 | 5 | 2.1
Cc1ccsc1C(=O)NCCc1c[nH]c2ccccc12
 : 2.7 | -6 | / | -0.7 | -3 | 75 | -3.6
COc1ccc(-c2cc3ccccc3n2CC(O)CNC(CO)(CO)CO)cc1 (centres undefined)
 : -5.0 | 1 | 3% | -5.9 | -5 | 6 | 2.4
O=C(CCCCCn1nnc2ccccc2c1=O)Nc1ccccc1Cl
 : -5.4 | -3 | 0% | 3.1 | -4 | -4 | 2.2
CCCCCC(=O)NNC1=NCC(Cc2cccc(Cl)c2)S1 (centres undefined)
 : -0.2 | -3 | / | 8.1 | 0 | 15 | 3.0
CCCC1(C(=O)OCC)NC(c2ccc(O)cc2)C2C(=O)N(c3cccc(C(C)=O)c3)C(=O)C21 (centres undefined)
 : 3.3 | -5 | / | 2.4 | 0 | 16 | 0.8
CC1(C)Cc2cccc(OCC(=O)N3CCN(c4cccc(C(F)(F)F)c4)CC3)c2O1
 : -0.9 | 2 | 1% | 0.6 | 2 | 2 | 0.7
CCC(=O)NC(=S)Nc1cccc(C(C)=O)c1
 : -0.6 | -7 | 7% | 0.6 | -1 | -2 | -1.6
CC(C)(C)c1ccc(Cc2n[nH]c(=S)[nH]c2=O)cc1
 : 0.3 | 17 | 3% | 3.3 | 78* | 28 | -0.8
O=C1C=C(c2ccc3c(c2)OCO3)C[C@@H](c2ccc3c(c2)OCO3)C1
 : -2.9 | -20 | / | / | / | 4 | -7.8
Cc1cc(C)n2cc(CSc3nnc(N)s3)nc2n1
 : 0.2 | 26 | 7% | 0.3 | 5 | 21 | -1.2
O=C(CN(c1ccccc1)S(=O)(=O)c1ccc(F)cc1)NCc1cccs1
 : 3.9 | -1 | / | / | / | 9 | -1.3

# (next part)
# Values run as follows: LANA-H2B inh | B2AR ag | Vif TR-FRET | RanGTP-Impb inh | Calb FLC | ALR inh | HNF4A DNA FP
COc1cc(/C=C2\S/C(=N/S(=O)(=O)Cc3ccccc3)NC2=O)c([N+](=O)[O-])cc1OC
 : -2.9 | -7 | / | -5.6 | -3 | 21 | -1.2
O=C(O)CNC(=O)c1ccc(NC(=O)/C(=C/c2ccccc2)NC(=O)c2ccccc2)cc1
 : 12 | 3 | 1% | 4.2 | 7 | ? | 2.4
O=C(O)CCc1ccc(-c2cccs2)n1CC(=O)Nc1ccccc1C(F)(F)F
 : -0.9 | 2 | 5% | 3.3 | -4 | 14 | -1.8
COc1ccc(-c2ccc(NCCN3CCOCC3)nn2)cc1OC
 : -5.5 | -3 | / | 1.3 | 1 | 10 | 6.2
Cc1ccc(-n2c(SCC(=O)N/N=C/c3ccccc3C(=O)O)nnc2-c2ccc(Cl)cc2)cc1
 : -2.3 | -1 | -9% | 6.2 | -25 | / | -5.5
COc1ccccc1N(CC(=O)NC1CCCC1)C(=O)CCC(=O)Nc1ccccn1
 : 4.1 | -3 | / | 3.9 | 1 | / | -0.4
CCOC(=O)CCCCNCc1ccccc1
 : -4.0 | 1 | 28% | 1.5 | 8 | -2 | -0.9
CNC(=O)C1=C(C)n2c(nc3ccccc32)NC1c1ccc(OC)cc1 (centres undefined)
 : -0.2 | 5 | / | -0.5 | ? | 7 | 0.1
CSc1ncccc1C(=O)Nc1ccncc1
 : -23 | -5 | / | 1.6 | -25 | -6 | -0.7
COc1cccc(C(=O)OCC(=O)c2ccc(S(=O)(=O)N3CCCCC3)cc2)c1OC
 : / | -2 | 0% | / | / | / | 3.4
O=C(CN1CCN(c2ccc([N+](=O)[O-])cc2Cl)CC1)N1CCOCC1
 : -8.2 | -1 | 6% | -1.0 | 2 | -11 | 1.9
Nc1c(-c2ccc(Cl)cc2)cnn1-c1cccc([N+](=O)[O-])c1
 : 3.2 | -4 | 9% | -3.0 | -26 | -9 | 1.3
CCc1cc2c(SCC(=O)NC3CC3)ncnc2s1
 : -2.5 | -11 | -7% | / | / | -1 | 2.5
